ID4 SMM: binders of human ID4 protein, primary screen, biochemical, small molecule microarray, single point. Flag-ID4 binding, fluorescence F/B. 31,000 compounds, 1.2% hits. DNA-binding protein inhibitor ID-4 (Homo sapiens), P47928. AID 624137, 2012. calls only;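 active = spot signal over background at p below 0.07 in all four prints; compounds were printed on slides so no solution concentration is given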;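 also: a binder raises fluorescence above local background on the spot; about 2 pmol printed per array spot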
Target sequence (P47928 whole entry, looked up): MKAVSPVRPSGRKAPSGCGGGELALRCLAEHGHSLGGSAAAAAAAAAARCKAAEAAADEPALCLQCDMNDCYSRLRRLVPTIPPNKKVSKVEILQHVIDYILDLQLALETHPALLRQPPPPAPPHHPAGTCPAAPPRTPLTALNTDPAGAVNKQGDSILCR
Calls only; i = inactive; + = active, no number. Only part of the results is shown; rates above refer to the full screens.

SMILES	ID4 SMM
COC(=O)CNC(=O)c1cn(-c2ccccc2)nc1-c1ccc([N+](=O)[O-])cc1	i
O=c1[nH]c(CSc2nnc(-c3cccnc3)n2-c2ccccc2)nc2ccccc12	i
Cc1cccc(C)c1OCC(=O)Nc1ccccc1C(=O)Nc1ccc(C(=O)O)cc1	i
CCn1c(SCC(=O)Nc2cccc(F)c2)nnc1-c1ccc(C)cc1	i
COCc1cc(Sc2c(Cl)cccc2Cl)nc(-c2ccccc2)n1	i
CC(=O)N[C@@H]1C=C[C@@H](CC(=O)NCC2CCCCC2)O[C@H]1CO	i
c1ccc(CNc2nc3ccccc3n2CCN2CCCCC2)nc1	i
C[C@@H]1CN([C@H](C)CO)S(=O)(=O)c2ccc(-c3cccc(C(=O)N(C)C)c3)cc2O[C@H]1CN(C)C(=O)Nc1ccc(F)cc1	+
O=C(Cc1ccccc1)N[C@H]1CC[C@@H](CC(=O)N2CCOCC2)O[C@@H]1CO	i
C[C@H](CO)N1C[C@H](C)[C@@H](CN(C)Cc2ccccn2)Oc2cc(-c3cccc(C#N)c3)ccc2S1(=O)=O	i
CCOc1ccccc1NC(=O)Cn1cnc2scc(-c3ccc(Cl)cc3)c2c1=O	i
O=C(CCNc1ccc(Cl)c(C(F)(F)F)c1)c1ccccc1	i
O=C(Nc1sc2c(c1C(=O)NCC1CCCO1)CCC2)c1sc2ccccc2c1Cl (centres undefined)	i
O=C(C[C@@H]1CC[C@@H](NS(=O)(=O)c2ccccc2)[C@@H](CO)O1)NCc1ccncn1	i
O=c1oc2ccccc2n1CCn1c2ccccc2c2nc3ccccc3nc21	i
COc1c(OC/C=C(\C)CC2C=C(C)C(=O)O2)ccc2ccc(=O)oc12 (centres undefined)	i
O=C(c1ccco1)N1CCc2sccc2C1c1ccc(OC(F)(F)F)cc1 (centres undefined)	i
O=C(C[C@H]1CC[C@@H](NC(=O)C2CCC2)[C@@H](CO)O1)NC1CCC1	i
C/C=C/c1cnc2c(c1)C(=O)N([C@H](C)CO)C[C@@H](C)[C@H](CN(C)C(=O)C1CCCCC1)O2	i
CC(=O)N(C)C[C@@H]1Oc2ncc(C#CC(C)(C)O)cc2C(=O)N([C@@H](C)CO)C[C@@H]1C	i
O=C(N[C@H]1CC[C@H](CC(=O)N2CCOCC2)O[C@@H]1CO)c1cccc(F)c1	i
O=C(NCCN1CCOCC1)[C@]1(Cc2ccccc2)N=C(c2ccc(OCCCO)cc2)O[C@@H]1c1ccccc1	i
O=C(Cn1c(-c2cncs2)nc2ccccc21)NCc1ccccc1	i
O=C(CSc1ncn[nH]1)Nc1ccc2c(c1)OCCO2	i
CNC[C@@H]1Oc2ncc(-c3ccc(OC)cc3)cc2C(=O)N([C@@H](C)CO)C[C@@H]1C	i
Additional compounds:
SMILES	ID4 SMM
COC(=O)CSc1nnc(-c2cccs2)n1-c1ccc(Cl)cc1	i
Cc1cc(-c2ccc(Cl)cc2)nc(SCC(=O)Nc2ccccc2)n1	i
O=C(C[C@@H]1C=C[C@H](NC(=O)CC2CC2)[C@H](CO)O1)NCc1ccc(-c2ccccc2)cc1	i
CC(=O)c1ccc(NC(=O)CN(C)S(=O)(=O)c2ccc(C)cc2)cc1	i
Cc1ccc2ccc(C(Nc3ccccn3)c3ccc(C(C)C)cc3)c(O)c2n1 (centres undefined)	i
Cc1ccc(C)c(NC(=O)C(C)N(c2ccc(Cl)cc2)S(C)(=O)=O)c1 (centres undefined)	i
CN(C)c1ccc2c(c1)[C@@H]1C[C@H](CC(=O)NCC3CC3)O[C@H](CO)[C@@H]1O2	i
Cc1cc(C)c(C)c(OCC(O)Cn2cnc3ccccc32)c1 (centres undefined)	i
CCC(C)C1NC(=S)N(C2CCCCC2)C1=O (centres undefined)	i
O=C(CSc1nnc(-c2ccccc2Cl)n1-c1ccccc1)Nc1ccc([N+](=O)[O-])cc1	i
Cn1c(SCC(=O)Nc2cccc(C(=O)O)c2)nnc1-c1ccccc1	i
C[C@H](CO)N1C[C@H](C)[C@@H](CN(C)Cc2ccccc2)Oc2cc(C#CCN(C)C)ccc2S1(=O)=O	i
CCN(CC(=O)Nc1cc([N+](=O)[O-])ccc1C)S(=O)(=O)c1ccc2ccccc2c1	i
O=C(C[C@H]1CC[C@@H](NC(=O)Nc2cc(F)ccc2F)[C@H](CO)O1)NCc1ccncn1	i
COc1ccc(CNC(=O)C[C@@H]2C=C[C@H](NC(=O)c3ccc4c(c3)OCO4)[C@H](CO)O2)cc1	i
Cc1cc(Br)ccc1NC(=O)CSc1ncn(-c2ccccc2)n1	i
COc1ccc(CCNC(=O)Nc2ccc([N+](=O)[O-])cc2)cc1OC	i
O=C(CC(Sc1ccc(Cl)cc1)c1ccc(Cl)cc1)C1CC1 (centres undefined)	i
C[C@H](CO)N1C[C@H](C)[C@H](CN(C)S(=O)(=O)c2ccc(F)cc2)Oc2ncc(Br)cc2C1=O	i
Cc1ccc(NC(=O)COc2ccc(C(C)(C)C)cc2Br)c([N+](=O)[O-])c1	i
C[C@H](NC(=O)C[C@H]1C=C[C@@H](NC(=O)C2CCC2)[C@@H](CO)O1)c1ccccc1	i
CCNC(=O)C[C@H]1C=C[C@H](NC(=O)C2CC2)[C@@H](CO)O1	i
Cc1ccccc1CN(C)C[C@H]1OCc2cn(nn2)CCCC(=O)N([C@H](C)CO)C[C@H]1C	i
COc1ccc(NC(=O)C(C)N2c3cccc4cccc(c34)S2(=O)=O)c(OC)c1 (centres undefined)	i
CC(=O)OC(C)(C)/C=C/C(=O)[C@](C)(O)[C@H]1C(O)C[C@@]2(C)[C@@H]3CC=C4[C@@H](C=C(O[C@@H]5O[C@H](CO)[C@@H](O)[C@H](O)[C@H]5O)C(=O)C4(C)C)[C@]3(C)C(=O)C[C@]12C (some centres undefined)	i
Additional entries follow.
SMILES	ID4 SMM
CCc1cccc(CC)c1NC(=O)Cn1cnc2sc(C)c(C)c2c1=O	i
COC(=O)c1ccccc1NC(=O)CN1CCN(C)CC1	i
O=C1c2c(O)cc(O)cc2O[C@@H](c2ccc(O)cc2)[C@@H]1c1c(O)cc(O)c2c(=O)cc(-c3ccc(O)cc3)oc12	i
CCC(=O)N(C)C[C@H]1Oc2ncc(-c3ccccc3C)cc2C(=O)N([C@H](C)CO)C[C@H]1C	i
CC(Oc1cccc(NC(=O)c2ccc([N+](=O)[O-])cc2)c1)C(=O)c1cccc(Cl)c1 (centres undefined)	i
CCC(=O)N(C)C[C@H]1Oc2ncc(C3=CCCC3)cc2C(=O)N([C@@H](C)CO)C[C@H]1C	i
CSc1nc(SCC(=O)N(c2ccccc2)c2ccccc2)c2c3c(sc2n1)CCC3	i
CC(C)c1cn(CC[C@@H]2CC[C@@H](NC(=O)C3CCC3)[C@@H](CO)O2)nn1	i
CC(C)COC(=O)N(C)C[C@@H]1OCc2ccccc2-c2ccccc2C(=O)N([C@H](C)CO)C[C@H]1C	i
C[C@@H]1CN([C@@H](C)CO)C(=O)c2c(c3ccccc3n2C)-c2ccccc2CO[C@@H]1CN(C)C(=O)Nc1ccc2c(c1)OCO2	i
Cc1ccc(NC(=O)c2ccc(OCC(=O)Nc3ccc(Oc4ccccc4)cc3)cc2)c(C)c1	i
O=C(CCN1CCCCC1)N[C@H]1C=C[C@@H](CC(=O)N2CCC(Cc3ccccc3)CC2)O[C@H]1CO	i
O=C(CN1C(=O)CNC1=O)Nc1cccc(C(F)(F)F)c1	i
CCCN(C)C[C@H]1Oc2ncc(Br)cc2C(=O)N([C@@H](C)CO)C[C@@H]1C	i
COc1ccccc1NC(=O)N[C@@H]1CC[C@@H](CC(=O)N2CCC(Cc3ccccc3)CC2)O[C@H]1CO	i
CC(C)OC(=O)CSc1nnc(-c2cnccn2)n1-c1ccccc1	i
COc1ccc(OC)c(NC(=O)COc2ccc3c(=O)c(Oc4ccccc4Br)coc3c2)c1	i
Cc1ncc([N+](=O)[O-])n1CC(=O)Nc1ccc(F)c(Cl)c1	i
COC(=O)C[C@H]1C=C[C@H](NC(=O)c2ccccc2)[C@@H](CO)O1	i
COc1ccc(C(=O)NCCCN2CCCC2=O)cc1[N+](=O)[O-]	i
C[C@@H]1CN([C@H](C)CO)C(=O)c2cc(C#CCc3ccccc3)cnc2O[C@H]1CN(C)Cc1ccccn1	i
C[C@H](CO)N1C[C@H](C)[C@H](CN(C)CC2CCOCC2)Oc2ncc(-c3ccc(F)cc3)cc2C1=O	i
COc1ccccc1N1C(=O)CC(SCC(=O)Nc2ccc(F)cc2)C1=O (centres undefined)	i
C/C=C/c1ccc2c(c1)O[C@H](CN(C)C(=O)COC)[C@@H](C)CN([C@H](C)CO)S2(=O)=O	i
C[C@]12CCC(=O)C=C1CCC1C2C(=O)C[C@@]2(C)C1CC[C@]2(O)C(=O)CO (some centres undefined)	i
Other compounds.
SMILES	ID4 SMM
COc1cc(CCc2ccc3c(c2)OCO3)oc(=O)c1	i
COc1ccccc1C#Cc1ccc2c(c1)O[C@H](CN(C)Cc1cccnc1)[C@@H](C)CN([C@@H](C)CO)S2(=O)=O	i
C[C@@H]1CN([C@@H](C)CO)S(=O)(=O)c2ccc(C3=CCCC3)cc2O[C@H]1CN(C)CC1CCOCC1	i
CCCN(C)C[C@@H]1Oc2cc(C#Cc3ccccc3)ccc2S(=O)(=O)N([C@H](C)CO)C[C@@H]1C	i
C[C@H]1CN([C@@H](C)CO)C(=O)c2ccccc2-c2ccccc2CO[C@@H]1CN(C)Cc1cccc(C(=O)O)c1	i
COc1ccc([Si](C)(C)[C@H]2[C@H](CCO)O[C@@]3(C(=O)N(Cc4cccc(NC(=O)[C@H](C)O)c4)c4ccccc43)[C@@H]2C)cc1	i
CC(C)(C)n1nc(-c2ccc(Cl)cc2)c2c(N)ncnc21	i
N#Cc1cc2c(nc1SCC(=O)Nc1cccc(F)c1)CCCCC2	i
C[C@@H]1CN([C@H](C)CO)S(=O)(=O)c2ccc(C#CCN(C)C)cc2O[C@@H]1CN(C)C	i
CNC[C@H]1Oc2cc(C#Cc3ccccc3)ccc2S(=O)(=O)N([C@H](C)CO)C[C@@H]1C	i
FC(F)(F)c1ccnc(SCn2c(=S)sc3ccccc32)n1	i
C[C@@H]1CN([C@H](C)CO)C(=O)c2cc(C#Cc3ccc(F)cc3)cnc2O[C@@H]1CN(C)C	i
CCCN(C)C[C@H]1Oc2cc(C#Cc3ccccc3F)ccc2S(=O)(=O)N([C@H](C)CO)C[C@@H]1C	i
CCOc1ccc(C(C)=O)cc1CSc1nc(C)cc(=O)[nH]1	i
Cc1cc(=O)[nH]c(SCC(=O)Nc2ccc(Br)cc2)c1C#N	i
CN(C)C(=O)C[C@H]1C[C@H]2c3cc(NS(C)(=O)=O)ccc3O[C@H]2[C@@H](CO)O1	i
COc1cccc(C#Cc2ccc3c(c2)O[C@@H](CN(C)C)[C@H](C)CN([C@H](C)CO)S3(=O)=O)c1	i
CCCc1cn(CC[C@H]2CC[C@H](NC(=O)C3CCC3)[C@H](CO)O2)nn1	i
COc1ccc(C(C)C)cc1S(=O)(=O)NCCN1CCOCC1	i
CC1Cc2ccc(F)cc2CN1C(=O)c1ccc(COc2ccccc2Br)o1 (centres undefined)	i
O=C(C[C@@H]1CC[C@@H](NC(=O)C2CCC2)[C@@H](CO)O1)NCC1CC1	i
COc1ccc(OC)c(C(=O)CCC(=O)Nc2ccc(Cl)cc2)c1	i
COc1ccc(NC(=O)CNC(=O)c2ccc(C(C)(C)C)cc2)cc1	i
CCCC(O)C#Cc1cnc2c(c1)C(=O)N([C@H](C)CO)C[C@H](C)[C@H](CN(C)Cc1ccc(F)cc1)O2 (some centres undefined)	i
Cc1ccc(S(=O)(=O)NC(C)C(=O)Nc2cccc([N+](=O)[O-])c2)cc1 (centres undefined)	i
(list continues)
SMILES	ID4 SMM
C[C@H]1CN([C@@H](C)CO)S(=O)(=O)c2ccc(C#Cc3ccccn3)cc2O[C@@H]1CN(C)Cc1ccc(F)cc1	i
Cc1sc(NC(=O)c2cc(-c3cccnc3)nc3ccc(Cl)cc23)c(C(N)=O)c1-c1ccccc1	i
C[C@H]1CN([C@@H](C)CO)C(=O)c2cc(C#CCC3CCCC3)cnc2O[C@H]1CN(C)C(=O)c1cnccn1	i
COc1ccccc1NC(=O)CSc1nc2ccccc2c(=O)n1-c1ccc(C)cc1	i
C[C@@H]1CN([C@@H](C)CO)C(=O)c2cc(C#Cc3cccnc3)cnc2O[C@@H]1CN(C)C	i
CCCc1cn(CC[C@@H]2CC[C@H](NC(=O)C3CC3)[C@@H](CO)O2)nn1	i

Entries from the list above with an aryl methoxy group, in the order listed:
SMILES	ID4 SMM
COc1c(OC/C=C(\C)CC2C=C(C)C(=O)O2)ccc2ccc(=O)oc12 (centres undefined)	i
CNC[C@@H]1Oc2ncc(-c3ccc(OC)cc3)cc2C(=O)N([C@@H](C)CO)C[C@@H]1C	i
COc1ccc(CNC(=O)C[C@@H]2C=C[C@H](NC(=O)c3ccc4c(c3)OCO4)[C@H](CO)O2)cc1	i
COc1ccc(CCNC(=O)Nc2ccc([N+](=O)[O-])cc2)cc1OC	i
COc1ccc(NC(=O)C(C)N2c3cccc4cccc(c34)S2(=O)=O)c(OC)c1 (centres undefined)	i
COc1ccccc1NC(=O)N[C@@H]1CC[C@@H](CC(=O)N2CCC(Cc3ccccc3)CC2)O[C@H]1CO	i
COc1ccc(OC)c(NC(=O)COc2ccc3c(=O)c(Oc4ccccc4Br)coc3c2)c1	i
COc1ccc(C(=O)NCCCN2CCCC2=O)cc1[N+](=O)[O-]	i
COc1ccccc1N1C(=O)CC(SCC(=O)Nc2ccc(F)cc2)C1=O (centres undefined)	i
COc1cc(CCc2ccc3c(c2)OCO3)oc(=O)c1	i
COc1ccccc1C#Cc1ccc2c(c1)O[C@H](CN(C)Cc1cccnc1)[C@@H](C)CN([C@@H](C)CO)S2(=O)=O	i
COc1ccc([Si](C)(C)[C@H]2[C@H](CCO)O[C@@]3(C(=O)N(Cc4cccc(NC(=O)[C@H](C)O)c4)c4ccccc43)[C@@H]2C)cc1	i
COc1cccc(C#Cc2ccc3c(c2)O[C@@H](CN(C)C)[C@H](C)CN([C@H](C)CO)S3(=O)=O)c1	i
COc1ccc(C(C)C)cc1S(=O)(=O)NCCN1CCOCC1	i
COc1ccc(OC)c(C(=O)CCC(=O)Nc2ccc(Cl)cc2)c1	i
COc1ccc(NC(=O)CNC(=O)c2ccc(C(C)(C)C)cc2)cc1	i
COc1ccccc1NC(=O)CSc1nc2ccccc2c(=O)n1-c1ccc(C)cc1	i

Screening data (PubChem)
